# Arbovirus inh: arbovirus infection inhibition. arbovirus infection cell-based antiviral screen. inhibition, % at 10 µM. hit rate 0.37% among 200,000. AID 1251;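 active = inhibition from about 30%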;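 also: bluetongue infection of BSR cells; cell survival read as ATP light after 72 h; 0% = infected wells without compound and 100% = uninfected wells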
# Mtb growth: M. tuberculosis H37Rv growth inhibitors, H37Rv strain (AID 1626); M. tuberculosis H37Rv growth inhibition; higher % means a stronger effect; inhibition, % at 10 µM; hits with a dose series show IC50 in µM; hit rate 0.95% among 220,000;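 active = confirmed in a dose series; inconclusive = inhibition above 80% but not taken into the dose series; inactive = below 80% or under 30% at every dose of the series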;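 also: bacteria incubated seven days before Alamar blue readout; 0% = bacteria only wells and 100% = bacteria with antibiotic wells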
# YopH PTP inh: inhibitors of Yersinia enterocolitica YopH tyrosine phosphatase; fluorescence Ex485/Em525; inhibition, %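 (about 10 µM by stock and volumes)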; hit rate 0.16% among 140,000; AID 898;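 active = inhibition of 50% or more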;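 also: controls were vehicle for no effect and minimum signal wells for full effect; inactives centre near -20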
# Mtb bLac sens: beta-lactam sensitization of Mtb H37Rv; inhibition, % at 25 µM; AID 434955; hit rate 0.27% among 330,000; M. tuberculosis H37Rv growth with meropenem, percent inhibition; hits of this screen are not shown here;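 active = about 74% or more and at least 40 points above the plate without the antibiotic, then above 30% in a dose series; inconclusive = first-round hits that could not be retested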;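 also: growth measured after seven days incubation then overnight dye step; 0% = bacteria only wells and 100% = bacteria with antibiotic; twin plates without the antibiotic show which effects depend on it; some results filed as inactive read as strong as hits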
# RecA intein inh: blocks M. tuberculosis RecA intein splicing | cell-free RecA intein splicing, fluorescence | inhibition, %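 (about 9 µM by stock and volumes)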 | hit rate 0.75% among 290,000 | AID 2221; in the data active = inhibition above about 30%; inconclusive = no clear call, values can overlap the other calls;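 also: 0% = vehicle wells and 100% = reference inhibitor control wells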
# Target sequence (P9WHJ3 whole entry, looked up): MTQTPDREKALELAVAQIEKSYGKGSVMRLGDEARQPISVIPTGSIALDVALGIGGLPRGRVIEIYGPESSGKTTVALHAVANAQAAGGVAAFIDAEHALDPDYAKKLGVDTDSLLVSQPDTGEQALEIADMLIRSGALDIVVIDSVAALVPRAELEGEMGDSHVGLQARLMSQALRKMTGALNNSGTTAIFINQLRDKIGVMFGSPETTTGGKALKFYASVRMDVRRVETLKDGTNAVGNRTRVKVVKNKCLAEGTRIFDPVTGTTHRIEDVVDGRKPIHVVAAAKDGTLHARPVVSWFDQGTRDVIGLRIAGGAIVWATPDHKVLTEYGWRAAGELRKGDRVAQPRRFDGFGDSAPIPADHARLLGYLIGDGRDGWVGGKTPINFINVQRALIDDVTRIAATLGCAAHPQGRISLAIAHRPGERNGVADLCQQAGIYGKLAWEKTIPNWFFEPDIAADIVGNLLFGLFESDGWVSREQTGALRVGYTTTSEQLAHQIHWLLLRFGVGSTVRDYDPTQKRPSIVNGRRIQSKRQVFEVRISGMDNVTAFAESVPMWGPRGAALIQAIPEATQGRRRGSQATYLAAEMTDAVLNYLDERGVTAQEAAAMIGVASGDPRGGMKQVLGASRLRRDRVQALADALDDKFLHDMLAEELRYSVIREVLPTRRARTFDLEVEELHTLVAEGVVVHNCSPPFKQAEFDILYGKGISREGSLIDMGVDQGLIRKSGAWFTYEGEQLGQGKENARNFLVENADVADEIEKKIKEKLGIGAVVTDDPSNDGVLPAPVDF
# Arbovirus inh repeat: further read-out of Arbovirus inh, marked with its call; inhibition, %; measured here: 10K subset replicate screen; many hits read low in the repeat;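 first of two repeat runs on a subset; 0% = infected and 100% = uninfected wells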
# Starred values were filed as active, the others as inactive; ? = inconclusive; nt = no result given. A portion of the library; the hit share may differ from the screen's.
# A first look (6 entries):
SMILES,Arbovirus inh,Mtb growth,YopH PTP inh,Mtb bLac sens,RecA intein inh,others
CC1Oc2ccccc2N(CC(=O)N2CCCCCC2)C1=O (centres undefined),nt,nt,nt,3,12,
Cc1cc(-c2ccc(C)c(S(=O)(=O)NCC3CCN(Cc4cccc(F)c4)CC3)c2)on1,nt,nt,nt,5,2.2,
COc1ccccc1/C=N/OC(=O)c1ccc(C)cc1,4,5%,nt,-1,7.1,
CCOc1ccc(NC(=O)CSc2nnc(Cn3cnc([N+](=O)[O-])n3)n2C)cc1,-12,6%,-25,6,-2.5,
CC(C)(C)C(=O)OCc1cn(-c2ccc(Cl)cc2)nn1,9,-10%,-50,-1,-0.2,
CCn1nnnc1SCC(=O)Nc1nc(-c2cccs2)cs1,8,9%,-34,15,3.9,

# The list itself, from the first entry:
SMILES,Arbovirus inh,Mtb growth,YopH PTP inh,Mtb bLac sens,RecA intein inh,others
CC1Oc2ccccc2N(CC(=O)N2CCCCCC2)C1=O (centres undefined),nt,nt,nt,3,12,
Cc1cc(-c2ccc(C)c(S(=O)(=O)NCC3CCN(Cc4cccc(F)c4)CC3)c2)on1,nt,nt,nt,5,2.2,
COc1ccccc1/C=N/OC(=O)c1ccc(C)cc1,4,5%,nt,-1,7.1,
CCOc1ccc(NC(=O)CSc2nnc(Cn3cnc([N+](=O)[O-])n3)n2C)cc1,-12,6%,-25,6,-2.5,
CC(C)(C)C(=O)OCc1cn(-c2ccc(Cl)cc2)nn1,9,-10%,-50,-1,-0.2,
CCn1nnnc1SCC(=O)Nc1nc(-c2cccs2)cs1,8,9%,-34,15,3.9,
O=C(CN1CCN(c2ccccc2)CC1)c1c[nH]c2ccccc12,nt,nt,nt,-9,-0.9,
CCC(C)(C)NC(=O)c1cccc(NC(=O)C(C)C)c1,1,-8%,nt,-1,1.9,
Cc1ccc(N2C(=O)Nc3ccc(Br)cc3C2(O)C(=O)NCCN(C)C)cc1C (centres undefined),nt,nt,nt,-5,2.5,
CCC(=O)c1ccc(OCCSc2ncccn2)cc1,3,-4%,-6,-2,1.9,
O=C(CSc1nnc(-c2ccc(O)cc2)o1)Nc1cccc(O)c1,nt,nt,nt,-3,5.6,
COc1ccc(-c2cc(=O)oc3cc(OCC(=O)NCC(O)c4ccccc4)ccc23)cc1 (centres undefined),nt,nt,nt,-1,-2.7,
CN(CCCN1CCOCC1)C(=O)c1cc(COc2cccc(C(F)(F)F)c2)on1,nt,nt,nt,-7,-6.5,
c1ccc(-c2nnc(-c3ccccc3)o2)cc1,1,5%,-34,9,1.8,
CCOc1ccc(/C=C/C(O)=C2/C(=O)NC3(C)CC2c2ccccc2O3)cc1OC (centres undefined),-23,-2%,nt,27,-4.7,
CSC1=NCCN1C(=O)COc1ccccc1,5,-6%,nt,-3,0.5,Arbovirus inh repeat=2
CN(C(=O)CSc1nnc(-c2ccccc2)o1)c1c(N)n(Cc2ccccc2)c(=O)[nH]c1=O,5,-3%,nt,7,-3.3,
CCOC(=O)c1c(S(=O)(=O)NCC2CCN(CCc3cccs3)CC2)c(C)n(C)c1C,nt,nt,nt,-4,0.6,
CC(C)N1C(=S)N(Cc2ccco2)C(=O)C1CC(=O)Nc1ccccc1 (centres undefined),9,-10%,nt,1,5.7,
O=C(Nc1ccc([N+](=O)[O-])cc1)N1CCN(C(=O)C2CCCO2)CC1 (centres undefined),nt,nt,nt,-14,0.6,
CC(=O)Nc1ccc(S(=O)(=O)NC2CC2)cc1,nt,nt,nt,-5,0.8,
COc1ccc(NC(=O)CNS(=O)(=O)c2ccccc2)cc1Cl,-1,12%,1,28,-0.8,
O=C(N/C(=C/c1cccnc1)C(=O)N1CCCCCC1)c1cccc(Br)c1,nt,nt,nt,-9,0.3,
CCCC(=O)NC(=S)Nc1ccc(NC(=O)c2cccs2)cc1,6,6%,-27,1,-3.1,
O=C(CSc1nc(=O)n(CCCN2CCOCC2)c2c1CCCC2)Nc1ccc(F)cc1F,nt,nt,nt,-4,-1.2,
CC1(C)CC2(CCO1)C(Nc1ccccc1)=NC(=S)N2CC(N)=O (centres undefined),nt,-7%,nt,0,-5.3,
CC(C)(C)C(=O)Nc1sc2c(c1C(=O)Nc1ccccn1)CCCC2,-7,1%,nt,-2,2.3,
Cc1ccc(C(O)(CCN2CCCCC2)c2ccccc2)cc1 (centres undefined),nt,nt,nt,5,-0.5,
CCO[C@H]1OC(C(=O)N2CCN(Cc3ccc4c(c3)OCO4)CC2)=C[C@@H](c2csc3ccccc23)[C@@H]1CCCO,-14,10%,nt,87,1.2,
O=C(OCc1cncs1)c1cccs1,-4,1%,nt,-1,-0.8,
CCn1cc(C(=O)NCc2ccc(C)o2)c2cc(OC)c(OC)cc2c1=O,6,-1%,-25,-6,12,
CCc1c(C)c2ccc(OC3CCCCC3=O)cc2oc1=O (centres undefined),nt,nt,nt,2,-2.1,
O=C(C[n+]1ccccc1)Nc1cc(C(F)(F)F)ccc1Cl,6,0%,-30,-2,0.7,
CCCC(=O)N1CCN(c2ccc(NC(=O)c3ccco3)cc2)CC1,2,-4%,-53,-8,-1.3,
CN(c1ccc(C(=O)N2CCOCC2)cc1[N+](=O)[O-])C1CCCCC1,5,2%,-23,-1,1.1,
O=[N+]([O-])c1ccccc1NCc1c(O)ccc2ccccc12,nt,2%,nt,0,-1.7,
COC(=O)c1cc(CNC(=O)c2ccc(O)c(Cl)c2)ccc1OC,-3,-3%,-7,1,-0.6,
O=C(NCCc1nccs1)C1CCC(=O)N(Cc2cccc(C(F)(F)F)c2)C1 (centres undefined),nt,nt,nt,-3,-1.9,
Cc1cc(C(=O)Oc2ccccc2C(=O)O)c(C)o1,-4,-6%,-30,4,-1.5,
O=C(O)c1ccnc(Cl)c1,10,3%,-3,6,-0.4,
Fc1ccccc1CSc1ncn[nH]1,3,0%,-37,-1,-0.3,
COC(=O)CCCCCN1C(=O)NC(c2ccccc2)C(C(=O)OCc2ccccc2)=C1C (centres undefined),2,-10%,2,4,0.8,
COc1ccccc1-c1nc(C#N)c(NCc2ccc(F)cc2)o1,11,11%,-36,22,-1.6,
CC(C)CCN1CCN(Cc2ccc3nsnc3c2)CC1CCO (centres undefined),-5,-2%,nt,0,-1.7,
CCOc1cccc(C(=O)Nc2cc(-c3nn4c(C)nnc4s3)ccc2C)c1,6,-1%,-20,?,2.1,Arbovirus inh repeat=2
CCC(C)(c1nnnn1-c1c(C)cccc1C)N(N=O)c1cccc(C(F)(F)F)c1 (centres undefined),12,1%,-9,-2,6.1,
CCc1cccc(C)c1NC(=O)CO/N=C(\N)CC(=O)NC1CCCCC1,-4,-2%,nt,2,1.3,
CC1NCCC2(O)CCCCC12 (centres undefined),12,2%,nt,-2,-1.5,
CCc1nnc(NC(=O)C2CCCN(S(=O)(=O)c3ccccc3)C2)s1 (centres undefined),14,-3%,-3,-14,0.4,
CN(Cc1ccccc1)C(=O)CCC1CCN(S(=O)(=O)N(C)C)CC1,nt,nt,nt,-4,-5.3,
# (next part)
SMILES,Arbovirus inh,Mtb growth,YopH PTP inh,Mtb bLac sens,RecA intein inh,others
COC(=O)C1(Cc2cc(-c3ccc([N+](=O)[O-])cc3)no2)CCN(C(=O)OC(C)(C)C)CC1,nt,nt,nt,2,-2.1,
COc1cc(NC(=S)Nc2ccc(S(=O)(=O)N3CCOCC3)cc2)cc(OC)c1OC,7,-9%,-27,0,-0.5,
CC(=O)Nc1ccc(SCC(=O)Nc2ccc(Cl)cn2)cc1,5,6%,nt,0,-6.6,
CCN1CCN(C(=O)CCc2nnc(CCCCc3ccccc3)o2)[C@@H](C)C1=O,6,-3%,nt,-3,0.8,
Cc1ccc(-c2nnc(SCC(=O)N3CCCC3)o2)cc1C,0,20%,-18,95,-1.4,
COC(=O)CSc1nc(-c2ccc(F)cc2)cc(C(F)(F)F)n1,7,3%,-2,-7,-1.3,
CCSc1nc2ccccc2c(=O)n1-c1c(C)n(C)n(-c2ccccc2)c1=O,-1,1%,nt,-4,-0.2,
CCn1c(C)[n+](CCOCC[n+]2c(C)n(CC)c3cc(Cl)c(Cl)cc32)c2cc(Cl)c(Cl)cc21,4,-1%,-17,-10,nt,
Cc1ccc(NS(=O)(=O)c2ccc3[nH]c(=O)[nH]c3c2)c(C)c1,-6,-3%,nt,5,-2.1,
O=C(OCc1nc2ccccc2s1)c1cccc(N2C(=O)CCC2=O)c1,3,1%,nt,-7,3.1,
Cc1cc(C)cc(OCC(=O)NNC(=O)CCC(=O)NCc2ccccc2)c1,-8,1%,-42,2,-1.0,
O=c1[nH]c(-c2ccccc2O)nc2c1CCCC2,-3,-7%,-36,0,1.9,
COC(=O)c1cc(S(=O)(=O)N2CCN(c3ccc(F)cc3)CC2)c[nH]1,nt,nt,nt,-1,-2.1,
CCc1ccc(N2CC(C)Cn3c2nc2c3c(=O)[nH]c(=O)n2C)cc1 (centres undefined),nt,nt,nt,-5,0.5,
CCOc1ccc(/C=N/Nc2nc(N3CCCC3)nc(N3CCCC3)n2)cc1OC,3,-1%,-12,40,-2.2,
Cc1ccc(S(=O)(=O)N2CCN(C(=O)c3ccc(Cl)nc3)CC2)cc1,-5,-9%,nt,-4,-0.1,
CC(=O)Nc1ccc(Sc2ncnc3scc(-c4ccccc4)c23)cc1,-19,-1%,-5,25,0.4,
COc1cccc(C2C(C#N)=C(N)SC(c3ccccc3)C2[N+](=O)[O-])c1 (centres undefined),-9,-2%,nt,0,16,
Cc1nc(/N=C\c2ccc(N(C)C)cc2)sc1C,nt,nt,nt,-7,-0.4,
N#Cc1ccc(NC(=O)CCc2nc3ccccc3s2)cc1,3,4%,-22,-5,0.1,

# Copied from the results shown (two entries):
SMILES,Arbovirus inh,Mtb growth,YopH PTP inh,Mtb bLac sens,RecA intein inh,others
Cc1nc(/N=C\c2ccc(N(C)C)cc2)sc1C,nt,nt,nt,-7,-0.4,
N#Cc1ccc(NC(=O)CCc2nc3ccccc3s2)cc1,3,4%,-22,-5,0.1,

# Next structures:
SMILES,Arbovirus inh,Mtb growth,YopH PTP inh,Mtb bLac sens,RecA intein inh,others
CSCC[C@H](NC(=O)N1CCn2c1nc1ccccc12)C(=O)NCc1ccc(F)cc1,nt,nt,nt,11,0.8,
CCOC(=O)C1CCCN(C(=O)c2ccccc2NC(C)=O)C1 (centres undefined),6,-22%,9,1,-0.6,
Cn1c(N)c(N=Nc2ccc(S(N)(=O)=O)cc2)c(=O)n(C)c1=O,nt,3%,nt,-11,1.6,
O=C(O)c1ccc(N/N=C/c2cc3cc4c(cc3nc2Cl)OCCO4)cc1,nt,5%,nt,-7,-7.3,
O=C(O)CSCc1ccc(C(=O)O)o1,1,-8%,-21,-8,-1.3,
COc1ccc(C2CC(=O)C=C(NCC3CCCO3)C2)cc1 (centres undefined),2,-8%,-22,1,-2.2,Arbovirus inh repeat=2
COC(=O)CN1C(=O)[C@H]2[C@@H](C3CC3)N3C(=O)CN(Cc4ccc(-c5ccccc5)cc4)C(=O)[C@@]3(Cc3ccccc3)[C@H]2C1=O,nt,nt,nt,12,3.4,
C1=CC2CC1CC2CNCc1ccco1 (centres undefined),2,-4%,-20,-3,nt,
CN(CC(=O)Nc1c(Cl)cccc1Cl)C(=O)c1ccccc1-c1nc2ccccc2s1,nt,nt,nt,0,5.3,
COc1ccc(OC)c(/C(C)=N\NC(=O)c2cc3cc(Cl)ccc3n2C)c1,nt,nt,nt,-4,9.0,
Cc1ccc(C(=O)NCCc2cccs2)cc1,1,13%,nt,4,-0.4,
Cc1ccc(C)c(NC(=S)c2ccccn2)c1,-4,0%,0,99,-2.4,
CCN1CCc2c(OCC(=O)N3N=C(c4cccs4)CC3c3ccc(F)cc3)cccc2C1=O (centres undefined),-4,nt,-26,3,-0.7,
Cn1ncc2c(NNC(=O)Cc3cccc4ccccc34)ncnc21,9,1%,-20,1,0.4,
CC(OC(=O)c1cc(Br)ccc1O)C(=O)NCc1ccc2c(c1)OCO2 (centres undefined),nt,nt,nt,-3,-3.3,
CCCCCCc1cc2cc(S(=O)(=O)c3ccc(Cl)cc3)c(=O)oc2cc1O,-8,-8%,-6,-2,-31,
O=C(CC12CC3CC(CC(C3)C1)C2)NC(=S)NCc1ccco1,-2,?,nt,10,13,
Cc1cc(NC(=O)c2c(F)cccc2Cl)no1,5,2%,nt,-1,nt,
Cc1cc(CNC(=S)Nc2cccc(Cl)c2Cl)nn1C,-1,2%,nt,-4,0.1,
CC1CCN(C(=O)CSc2nnc(CNC(=O)c3c(F)cccc3F)o2)CC1,nt,nt,nt,-9,-2.6,
NC(=O)c1sc2nc3c(c(-c4ccccc4)c2c1N)CCC3,21,2%,39,-2,-17,
CC(C)Nc1nnc(SCC(=O)Nc2ccc(F)cc2)s1,-1,2%,-39,6,-0.8,
CC(OC(=O)c1snc(C(=O)NC2CCCCC2)c1N)C(=O)NC1CCCCC1 (centres undefined),-1,2%,14,-1,-1.0,
COC(=O)N1c2ccccc2CCc2ccccc21,nt,nt,nt,-2,0.1,

# Screening results as filed in PubChem BioAssay.
